# Source: PubChem
# S aureus helic: S. aureus DNA helicase inhibition; purified S. aureus helicase, fluorescence unwinding assay; about half of the hits fall short of the stated cut; inhibition, %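 (tested at about 80 µM)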; 120,000 compounds, 0.05% hits; AID 485395;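 active = both duplicates at 50% or more, or one of them with a favoured structure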;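 also: 0% = mean of negative control wells and 100% = mean of positive control wells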
# MgrA DNA FP: modulators of Staphylococcus aureus MgrA DNA binding; inhibition, %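 (about 10 µg/mL by stock and volumes)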; fluorescence polarization; 84,000 compounds, 0.13% hits;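 active = above 50% in either of two replicates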;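 also: 0% = protein plus DNA without compound and 100% = DNA alone without protein; higher means less MgrA bound to DNA so lower polarization; one replicate is shown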
# Starred values were filed as active, the others as inactive; . = not tested or not shown. An excerpt (hit frequency here may not be typical).
SMILES,S aureus helic,MgrA DNA FP
COc1cc(NC(=O)CCNS(=O)(=O)c2ccc3c(c2)CCCC(=O)N3)cc(OC)c1OC,6,.
CN1C(=O)c2ccccc2Sc2ccc(NC(=O)N3CCCC3)cc21,-8,0.2
CC(CCc1ccccc1)Nc1nc2ccccc2n2cnnc12 (stereo unspecified),16,.
O=C(NS(=O)(=O)c1ccc2c(c1)OCCO2)c1ccccc1,7,.
CCOc1ccc(N=C2SCC(=O)N2CC)cc1,5,-1.6
CNC(=O)CN(Cc1ccccc1)S(=O)(=O)c1ccc(Cl)cc1,14,0.4
O=C(NCc1ccc(-c2csnn2)cc1)c1cccs1,.,1.2
CCC(=O)N1CCc2cc(S(=O)(=O)CCC(=O)NC3CCCCCC3)ccc21,6,.
CCC(c1c(N)[nH]c(=S)[nH]c1=O)c1c(N)[nH]c(=S)[nH]c1=O,9,.
O=C(c1ccc(S(=O)(=O)NCc2ccco2)cc1)N1CCC(n2c(=O)[nH]c3ccccc32)CC1,-12,.
Cc1cc(-c2cccs2)c2c(N)c(C(=O)c3ccccc3)sc2n1,-4,15
CCc1sc(C(=O)Nc2cccc(Cn3cccn3)c2)cc1Br,9,-2.2
COc1ccc(NC(=O)Cc2nn(C)c(=O)c3ccccc23)cc1,-2,0.7
CCc1cccc(NC(=O)c2sc(-n3cccc3)nc2C)c1,-3,-0.8
COc1ccc(NC(=S)N(Cc2ccccc2)Cc2cccn2Cc2ccc(C)cc2C)cc1OC,5,0.1
CCC1CCCCN1C(=O)Cn1c(=O)n(Cc2ccccc2Cl)c(=O)c2cc(OC)c(OC)cc21 (stereo unspecified),8,-0.3
CC1Cn2c(C(=O)NCc3ccccc3)cc3c(Cl)ccc(c32)O1 (stereo unspecified),6,-0.9
CC(=O)OC1CSSCC1OC(C)=O (stereo unspecified),.,-1.2
CCN1C(=O)/C(=C/c2c[nH]c3ccccc23)c2ccccc21,-18,.
CCOC(=O)N1CCC(NC(=O)C2CCCN(c3ncnc4c3sc3cccc(F)c34)C2)CC1 (stereo unspecified),8,-0.6
CC(=O)Nc1ccc(SC(F)(F)C(F)(F)C(F)(F)F)cc1,5,-0.5
CN(Cc1ccccc1)C(=O)CCS(=O)(=O)c1cc2c(cc1Cl)NC(=O)CO2,-13,.
CCCC(=O)Nc1cccc(N)c1,7,-2.1
Cc1ccc(NC(=S)C(C#N)C(=O)N2CCCC2)c(C)c1 (stereo unspecified),.,3.0

# Whole records as entered above. Values in the order: S aureus helic, MgrA DNA FP
# Entry for `CC(=O)Nc1ccc(SC(F)(F)C(F)(F)C(F)(F)F)cc1` → 5, -0.5
# Entry for `CCC1CCCCN1C(=O)Cn1c(=O)n(Cc2ccccc2Cl)c(=O)c2cc(OC)c(OC)cc21` (stereo unspecified) → 8, -0.3
# Entry for `CCCC(=O)Nc1cccc(N)c1` → 7, -2.1
# Entry for `Cc1ccc(NC(=S)C(C#N)C(=O)N2CCCC2)c(C)c1` (stereo unspecified) → ., 3.0
# Entry for `COc1ccc(NC(=O)Cc2nn(C)c(=O)c3ccccc23)cc1` → -2, 0.7

# (more compounds)
SMILES,S aureus helic,MgrA DNA FP
CN(C)c1nc(C#N)nc(N2CCOCC2)n1,17,-3.0
COCc1cc(C(=O)Nc2ccc(Cl)cc2)cc2c1OCOC2,.,-3.0
CCOc1cc(CNCc2ccco2)ccc1OCc1ccccc1,20,0.4
Cc1cccc(Cl)c1NC(=O)N1CCCN(c2ncccc2C(F)(F)F)CC1,.,0.0
O=C(Nc1ccccc1F)OCC1CCCN2CCCCC12 (stereo unspecified),11,-2.0
c1ccc2c(NC3CCCC3)nc(N3CCNCC3)nc2c1,15,0.4
CC(C)(C)C1CCC(=NNC(=O)Cc2cn3ccsc3n2)CC1 (stereo unspecified),13,.
C=CC[N+]1(CC#Cc2ccccc2)CCOCC1,6,0.6
O=C(Nc1ccc(Cc2ccncc2)cc1)c1cc2ccccn2n1,3,-1.8
CCCCn1c(-c2ccc(Br)cc2)nc2ccccc21,13,-0.2
NC(=O)C1CCN(C(=O)c2cn(-c3ccccc3)nc2-c2cccs2)CC1,-13,-2.8
O=C(Cn1c(SCc2ccc(F)cc2)nc2cccnc21)N1CCCc2ccccc21,4,6.0
Cc1ccc(Cl)cc1N1CCN(CCCNc2nc3ccccc3n3c(C)nnc23)CC1,9,-1.3
O=c1c2ccccc2[nH]c(=S)n1CCCn1ccnc1,-6,1.9
CCOc1ccc(-n2c(O)c(C3=c4cc(Br)ccc4=NC3=O)sc2=S)cc1,.,0.7
O=C(NCCc1ccccc1)C(=S)N1CCCC1,8,0.2
CCC1(C)NC(=O)N(/N=C/c2cn(-c3ccccc3)nc2-c2cc3ccccc3o2)C1=O (stereo unspecified),2,.
O=C(c1nn(Cc2ccccc2)c(=O)c2ccccc12)N1CCN(Cc2ccc3c(c2)OCO3)CC1,-21,.
O=C(Nc1cnc2ccccn2c1=O)NC1CCCC1,9,.
Cc1sc(-c2c(F)cccc2F)nc1O,4,.
CCOC(=O)N1CCN(c2ccc(S(=O)(=O)N(Cc3ccccc3)Cc3ccccc3)cn2)CC1,-1,.
CCOc1ccc(N2CC(=O)SC2=S)cc1,11,3.3
Cc1ccccc1OCC1=NN2C(=N)/C(=C\c3cccn3-c3ccccc3C)C(=O)N=C2S1,-37,.
CC(C)c1ccc(NCCC(=O)c2ccc(Cl)s2)cc1,.,-3.9
CC1=C(C(=O)Nc2ccccc2C)Sc2ccccc2N1,5,-5.1
Cc1noc(C)c1CSc1ccccc1C(=O)Nc1nccs1,-13,.
CCCn1c(CNC(=O)c2cccc(C)c2)nc2ccccc21,0,.
N#CC1=C(N)N2C(=C(C#N)C1c1cccnc1)Sc1ccccc12 (stereo unspecified),-81,16
CC(C)NC(=O)c1ccc(-c2ccc(F)cc2)o1,-15,0.6
COc1ccc(/C=N/n2cn[nH]c2=S)cc1OC,16,-1.1
O=C(Nc1ccccc1)NC1CCCCC1,7,.
CC(C)C(=O)NC(=S)Nc1ccc(N2CCCCC2)cc1,-1,-0.2
COc1ccc(-c2nc3c(c(SCC(N)=O)n2)Cc2ccccc2O3)cc1,17,-0.7
CCOC(=O)c1cc(-c2ccccc2)n(CCC(=O)N2CCCCCC2)c1C,3,-2.2
CCCCC1CCC(C(=O)Nc2c3c(nn2C(C)(C)C)CS(=O)(=O)C3)CC1 (stereo unspecified),-16,.
O=C(C=C1NCCN1)c1ccccc1,3,.
c1ccc(CNc2ccc3c(ccc4c5ccccc5[nH]c34)n2)cc1,5,-5.3
COc1ccc(-c2noc(N(C)c3ccccc3)n2)cc1,-6,8.7
CC1NCCc2sccc21 (stereo unspecified),4,3.3
Cc1ccc(OCc2nnc(NC(=O)c3ncoc3-c3cccc(Cl)c3)s2)cc1,5,4.3
Clc1ccccc1CNCc1ccc2c(c1)OCO2,24,.
Cc1nc2sccn2c(=O)c1CCC(=O)O,-6,.
CCC(=O)Nc1c(C#N)c2nc3ccccc3nc2n1Cc1ccccc1,-92,-0.4
Cn1cc(C(=O)NC2CCCC2)c(=O)c2cc(S(=O)(=O)N3CCCCC3)ccc21,-27,.
CCOc1ccc(C2C3=C(CCCC3=O)Nc3ncnn32)cc1 (stereo unspecified),-1,-0.7
Cc1cc(C)cc(NC2=NC3CS(=O)(=O)CC3S2)c1 (stereo unspecified),-16,.
CC(NC(=O)Cn1[nH]c(=O)c2ccccc2c1=O)c1ccc(-n2ccnc2)cc1 (stereo unspecified),0,.
O=C(Cc1cn2ccsc2n1)NCc1ccccc1,-12,.

# The final five entries of the part above lead into the next.
SMILES,S aureus helic,MgrA DNA FP
Cn1cc(C(=O)NC2CCCC2)c(=O)c2cc(S(=O)(=O)N3CCCCC3)ccc21,-27,.
CCOc1ccc(C2C3=C(CCCC3=O)Nc3ncnn32)cc1 (stereo unspecified),-1,-0.7
Cc1cc(C)cc(NC2=NC3CS(=O)(=O)CC3S2)c1 (stereo unspecified),-16,.
CC(NC(=O)Cn1[nH]c(=O)c2ccccc2c1=O)c1ccc(-n2ccnc2)cc1 (stereo unspecified),0,.
O=C(Cc1cn2ccsc2n1)NCc1ccccc1,-12,.
COc1ccc(C2(CC(=O)O)CCOC(C)(C)C2)cc1 (stereo unspecified),9,-5.4
COC(=O)c1ccc(Oc2nc(-c3cccnc3)nc3ccccc23)cc1,2,.
O=C(OCC(=O)N1CCN(Cc2ccccc2)CC1)c1ccc(Cl)cc1,1,.
COC(=O)c1cccc(C(=O)Nc2cnc3ccccc3c2)n1,8,-2.4
CC1(C)CN=C(NC2CCCCC2)S1,.,1.7
CNC(=O)c1oc2c(c1C)C(=O)CC(C)(C)C2,7,5.3
CCN(C(=O)COc1ccc(-c2nnco2)cc1)c1cccc2ccccc12,10,.
COc1ccc(/C=N/NC(=O)c2ccc3c(c2)NC(=O)C(C)(C)O3)cc1OC,5,3.0
O=C(Nc1ccccc1C(=O)O)c1cc(S(=O)(=O)N2CCCC2)ccc1Cl,-1,1.9
CS(=O)(=O)NCCc1ccccc1,7,4.5
COc1cc(C2SCCS2)cc(Br)c1OC(=O)NC(=O)c1c(F)cccc1F,.,2.2
CCSc1ccccc1C(=O)N=C1NC(=O)CC2C(=O)NCCN12 (stereo unspecified),29,.
CCC(Sc1nc2nccnc2c(=O)n1Cc1ccc2c(c1)OCO2)C(=O)NC1CCCCC1 (stereo unspecified),4,1.9
O=C(c1cccnc1)N1CCC(Cc2ccccc2)CC1,-9,3.8
Cn1ncc2c(Nc3cccc(C(F)(F)F)c3)ncnc21,-14,.
O=C(NC(Cc1ccccc1)C(=O)O)c1ccc(Cl)c(Cl)c1 (stereo unspecified),.,-1.5
Cn1c(=O)c2[nH]c(-c3ccc(Cl)cc3)c(O)c2n(C)c1=O,14,2.0
CC(C)(C)c1cc(C(=O)NN)no1,.,-3.4
NC1=NC2(CCCC2)N=C(Nc2ccccc2)N1,-6,.
Cc1cc(C)cc(NC(=O)CSc2nnc(NC(=O)C(C)C)s2)c1,-17,.
C/C(=N/Nc1nc2ccccc2s1)C1=C(O)c2ccccc2C1=O,20,.
CCS(=O)(=O)c1ccc2nc(SCC(=O)n3c4c(c5ccccc53)CCCC4)oc2c1,-4,-2.2
COc1cccc(NC(=O)/C=N/O)c1,-11,.
CS(=O)(=NS(=O)(=O)c1ccccc1C(F)(F)F)c1ccc(Cl)cc1 (stereo unspecified),.,1.3
CCOC(=O)CCc1c(C)n(CC)c2ncnn2c1=O,8,.
CCOC(=O)C1=C(C)N=c2s/c(=C\c3cc4c(cc3Br)OCO4)c(=O)n2C1c1ccc2c(c1)OCO2 (stereo unspecified),.,2.4
CN(C)CCCNc1c2c(nc3ccccc13)CCC2,16,7.0
COc1nc(NC(C)=O)nc(C)c1Br,4,.
CC12CCC(=O)N1C(C(=O)OCN1C(=O)c3ccccc3C1=O)CS2 (stereo unspecified),-11,.
COc1cccc(Cn2c(SCc3ccc(C(=O)NCc4ccccn4)cc3)nc3ccncc32)c1,-4,-2.0
O=C(O)c1ccn(C(F)F)n1,2,-8.5
CCn1nc(C)cc1C(=O)n1nc(C)c(Sc2nccn2C)c1C,23,.
CCCCc1[nH]nc2c1C1(CCN(C)CC1)C(C#N)=C(N)O2,-31,.
Cc1cnn(Cc2ccccc2)c1N,6,15
CC1(c2csc(Nc3ccccc3Cl)n2)CCC(=O)O1 (stereo unspecified),-37,.
COC(=O)c1cc(=O)n2c(nc3ccccc32)s1,6,1.6
CCOC(=O)Cn1c(=NC(=O)c2ccco2)sc2c(C)cc(C)cc21,-6,.
Cc1cc(C)c2nc(C(F)(F)F)nc(N3CCN(Cc4ccccc4)CC3)c2c1,9,-2.2
Cc1ccc(-n2c(SCc3nnc4n3CCCCC4)nnc2-c2ccccc2)cc1,-8,.
CCN(CC)S(=O)(=O)c1ccc(NC(=O)C2CC(O)CN2S(=O)(=O)c2ccc(OC)cc2)cc1 (stereo unspecified),2,.
N#CNc1nc2ccccc2nc1Cl,2,0.4
C(=N\c1nc2ccccc2s1)/Nc1nc2ccccc2s1,-9,.
O=C1CSC(c2cccs2)N1 (stereo unspecified),.,-0.1
CCOC(=O)c1ccc2nc(C(F)(F)F)cc(N3CCN(C)CC3)c2c1,.,3.3
CCOC(=O)c1cc2cc(OC)ccc2oc1=O,-8,.
C#CCNC(C)c1ccccc1 (stereo unspecified),16,-1.3
Cc1nnc(NC(=O)CSc2nnc(CNC(=O)COc3ccc(Cl)cc3)n2-c2ccccc2)s1,4,.
OC(C#CCN1CCOCC1)c1ccccc1 (stereo unspecified),-7,.
Cc1nc2ccc(F)cc2cc1C(=O)O,3,.
CCOC(CCn1c(=S)[nH]c2cc(C(=O)OC)ccc2c1=O)OCC,7,1.0
CC(=O)NC(=O)c1cc2cc(Cl)cc(Cl)c2oc1=Nc1ccc(F)cc1,.,-1.3
CCSc1ccc(-c2ccccc2)nn1,4,.
Cn1c(=S)[nH]c2ccc(Br)cc2c1=O,8,12
CN(C)c1ccc(N)cc1C(=O)O,0,.
N=C1C(c2ccccc2)=C(O)CN1NC(=O)c1ccccc1,4,1.0
